WNV NS2B-NS3 inh = inhibitors of West Nile virus NS2B-NS3 protease. WNV NS2B-NS3 protease, fluorogenic substrate Ex360/Em465; stronger effect = lower value. z-score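 (tested at a level between 10 and 100 µM)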. P06935. hit rate 0.18% among 65,000;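 active means z-score at -3 or under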;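 further: score is relative to mean and spread of the compound wells of a plate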
Target sequence (P06935 1371-1501 limits assumed): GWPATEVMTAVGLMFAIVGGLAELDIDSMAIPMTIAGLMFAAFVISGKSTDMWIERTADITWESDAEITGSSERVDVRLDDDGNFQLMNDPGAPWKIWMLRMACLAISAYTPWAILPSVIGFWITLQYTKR
Target sequence (P06935 1502-1679 limits assumed): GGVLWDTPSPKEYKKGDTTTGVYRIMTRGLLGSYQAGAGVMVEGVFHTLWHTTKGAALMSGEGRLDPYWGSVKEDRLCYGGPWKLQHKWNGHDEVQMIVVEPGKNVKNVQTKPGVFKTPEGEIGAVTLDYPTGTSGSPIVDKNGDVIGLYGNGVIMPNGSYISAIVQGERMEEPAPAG
MT1-MMP reporter = inhibitors of MT1-MMP promoter transcription, cell-based, luciferase reporter, luminescence (AID 618) | hit rate 0.62% among 87,000 | calls from a first round at 10 µM; hits with a dose series show EC50 in µM | MT1-MMP promoter luciferase reporter cells, luminescence;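 active means over half of the reporter light lost at 10 µM or EC50 under 50 µM; inactive means the rest and hits that failed the dose series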;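 further: actives suppress MT1-MMP promoter-driven transcription so potencies describe inhibitors; HT1080 fibrosarcoma cells; overnight exposure; toxic or luciferase-blocking compounds were not removed from the actives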
Hsc70 = Hsc70 inhibitors, probe displacement, primary screen, biochemical, fluorescence polarization (AID 568). Hsc70 fluorescence polarization, probe displacement; higher % means a stronger effect; strong numbers were not always called active. displacement, % at 20 µM; hits with a dose series show IC50 in µM. 83,000 tested, under 10 active;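 active means displacement above 50% without optical interference and an IC50 on retest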;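 further: ATPase domain with a fluorescein-tagged ATP probe; 0% = vehicle and 100% = excess ADP; read after one hour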
* marks the source's active call; other numbers are inactive results; i = inactive; . = no result given; + = active, no number.

SMILES	WNV NS2B-NS3 inh	MT1-MMP reporter	Hsc70
COc1ccc(C2=NOC(C(=O)Nc3ccc(C)cc3)C2)cc1OC (stereo unspecified)	-0.27	i	-2.5%
CN(C)CCCn1c(NC(=O)C2CCCCC2)nc2ccccc21	-0.57	i	0.1%
Cc1ccc(CC2S/C(=C(/C#N)C(=O)NCc3ccco3)N(c3ccccc3)C2=O)cc1 (stereo unspecified)	-1.8	i	3.0%
Clc1ccc(OCc2nn3c(-c4ccco4)nnc3s2)cc1	-0.23	i	-3.5%
CCC(=O)O[C@]1(C(=O)CCl)[C@@H](C)C[C@H]2[C@@H]3CCC4=CC(=O)C=C[C@]4(C)[C@@]3(F)[C@@H](O)C[C@@]21C	-3	i	1.0%
Cc1nnc(SCC(=O)Nc2sc3c(c2C(N)=O)CCCC3)[nH]c1=O	.	i	-2.4%
CC1CCCN(C(=O)C2CCN(CC(C)c3ccccc3)CC2)C1 (stereo unspecified)	.	i	-3.5%
CCCn1c(SCC(=O)c2ccc3c(c2)OCCO3)nnc1-c1ccco1	-0.4	i	5.1%
O=C(CCC(=O)c1cccs1)NCc1ccccc1	0.77	i	1.2%
CCOc1ccc2nc3c(cc2c1)CN(CCCO)C(=NCCOC)S3	-0.09	i	2.9%
CCS(=O)(=O)N1CCCC(C(=O)NCc2cccc(OC)c2)C1 (stereo unspecified)	-0.81	i	0.7%
Cc1ccc(CNc2oc(-c3ccco3)nc2C#N)cc1	-0.57	i	-4.2%
COc1ccc(C2c3c(ncn(CCN4CCOCC4)c3=N)Oc3ccc4ccccc4c32)cc1OC (stereo unspecified)	.	i	-1.1%
CCN1CCN(C(c2cccs2)C(C)NC(=O)c2ccco2)CC1 (stereo unspecified)	-1.2	i	6.6%
O=C(CNC(=O)c1ccco1)NCC(=O)OCc1cccc(C(=O)Oc2ccccc2)c1	-0.23	i	1.3%
O=C(c1cccnc1)N1CCN(C(=O)c2cccs2)CC1	0.08	i	1.9%
CC(C)Oc1ccc(N2CC(C(=O)Nc3ccccc3F)CC2=O)cc1 (stereo unspecified)	-0.83	i	2.5%
O=S(=O)(c1ccc(Cl)cc1)c1snnc1-c1ccccc1	.	13µM*	1.8%
Cc1ccc(-c2nc(CS(=O)CC(=O)NCc3ccc(Cl)cc3)c(C)o2)cc1 (stereo unspecified)	0.31	i	2.9%
CNC(=O)COC(=O)c1cc(=O)[nH]c2ccccc12	.	i	2.5%
CSc1ncc(Cl)c(C(=O)C(C#N)c2nc3c(C)cc(C)cc3c(=O)[nH]2)n1 (stereo unspecified)	-0.86	i	3.0%
COc1ccc(-n2c(=S)[nH]c3cc(C(=O)NCc4ccco4)ccc3c2=O)cc1OC	1.1	i	-2.0%
Cn1c(SCC(=O)c2cc3ccccc3o2)nnc1-c1ccccc1	0.08	i	1.2%
COc1cccc(OCc2nc3ncc(Br)cc3[nH]2)c1	-0.51	i	1.9%
Cc1cnc(C(=O)OCC(=O)N(C(C)C)C(C)C)cn1	.	i	-0.3%
CCNc1nc(NCC)nc(SCCOC(=O)Nc2ccccc2)n1	.	i	1.3%
O=C(O)CN1CCNCC1	0.63	i	2.7%
CCOC(=O)c1ccccc1NC(=O)c1cc2sccc2n1C	0.02	i	-3.2%
CC(C)CC1C(C#N)=C(N)Oc2n[nH]c(-c3ccccc3)c21 (stereo unspecified)	.	i	-7.1%
Cc1cccc(C(=O)NC2CCN(C(=O)N3CCOCC3)CC2)c1	.	i	-0.2%
O=C1C2CCCN2C(c2ccccc2F)N1c1ccc(F)cc1 (stereo unspecified)	-0.45	i	-2.2%
CCn1c(SCC(=O)N(C(C)C)C(C)C)nnc1-c1cc2ccccc2cc1O	0.83	i	-2.6%
O=C(CCN1C(=O)c2ccccc2C1=O)N1CCN(C(=O)c2ccccc2)CC1	0.4	i	2.0%
COC(=O)c1c(N)n(-c2cc(OC)cc(OC)c2)c2nc3ccccc3nc12	0.63	i	-1.9%
COC(=O)c1ccc(Oc2nc(N3CCCCC3)nc(N3CCOCC3)n2)cc1	-0.69	i	-4.4%
CC(=O)c1cccc(NC(=O)CSc2nnc(-c3cccnc3)o2)c1	.	i	-3.4%
Cn1c(=O)c2c(nc(NCc3ccccc3)n2CC(=O)NCc2ccccc2)n(C)c1=O	0.49	i	2.6%
Cc1ccccc1NCC(=O)N/N=C/C(Br)=C/c1ccccc1	.	i	-1.2%
O=C(OCC#CCSc1nc2ccccc2s1)c1ccco1	-0.17	i	-5.0%
COc1ccc(NC(=O)c2[nH]c(C)c(C(C)=O)c2C)cc1Cl	-0.35	i	6.1%
COCCN(CC(=O)NCc1ccccc1)C(=O)CCC(=O)Nc1ccccn1	1	i	-1.9%
CC(C)CC(=O)Nc1nnc(-c2ccco2)s1	.	i	3.6%
CCn1nc(NC(=O)c2cccnc2)c2cc3cccc(C)c3nc21	1.2	i	-5.1%
COC(=O)C1=C(C)NC(=O)NC1c1ccsc1 (stereo unspecified)	.	i	2.7%
CC(C)Oc1ccc(/C(O)=C2/C(=O)C(=O)N(CCN3CCOCC3)C2c2ccccc2)cc1 (stereo unspecified)	0.06	i	-1.0%
Cc1occc1C(=O)n1nnc2ccccc21	1.6	i	0.9%
COC(=O)c1ccccc1NC(=O)c1nc2nc(C)cc(C)n2n1	-0.2	i	-2.2%
COc1ccc(-c2nnn(CC(=O)N(CCO)C(C(=O)NC3CCCC3)c3ccc(F)cc3)n2)cc1 (stereo unspecified)	-0.78	i	-1.3%
CCOC(=O)N1CCN(S(=O)(=O)c2ccc3c(c2)CCN3C(=O)C2CCC2)CC1	-0.06	i	1.4%
CC(Nc1n[nH]c(=S)[nH]c1=O)C(=O)OCc1ccccc1 (stereo unspecified)	-1.1	i	25%
COC(=O)c1ccc(CSc2ncn[nH]2)o1	1.5	i	10%
Fc1cccc(-c2cc3nc4c(c(N5CCC6(CC5)OCCO6)n3n2)CCCC4)c1	-1.7	i	-4.6%
Cc1cc(=O)oc2cc(OCC(O)CN3CCN(c4ccccc4)CC3)ccc12 (stereo unspecified)	0.65	i	-6.6%
CN1C(=S)SC(/[N+]([O-])=C\c2cccs2)C1(C)C (stereo unspecified)	0.16	i	4.9%
Cc1cc2c3c(c1)C(C)(c1ccccc1)CC(C)(C)N3C(=O)C21C(C#N)=C(N)OC2=C1C(=O)CC(C)(C)C2 (stereo unspecified)	.	i	-0.3%
COc1cccc(C(=O)OCC(=O)Nc2ccccc2N2CCOCC2)c1	-0.72	i	-6.5%
O=C(NCc1ccccc1)c1ccc(-c2ccccc2F)o1	-0.17	i	-3.0%
COc1nc(C)nc2c1sc(=S)n2C	-0.79	i	4.1%
O=C(NCCCn1ccnc1)c1cc2c(s1)CCCCC2	-0.64	i	1.5%
O=C1NC(Cc2c[nH]c3ccccc23)C(=O)N1c1ccc(F)cc1 (stereo unspecified)	.	i	-0.7%

Single records (already shown). Screens in order: WNV NS2B-NS3 inh | MT1-MMP reporter | Hsc70
`COc1cccc(C(=O)OCC(=O)Nc2ccccc2N2CCOCC2)c1` is entered as -0.72 | i | -6.5%
`Cc1cc2c3c(c1)C(C)(c1ccccc1)CC(C)(C)N3C(=O)C21C(C#N)=C(N)OC2=C1C(=O)CC(C)(C)C2` (stereo unspecified) is entered as . | i | -0.3%

Next section.
SMILES	WNV NS2B-NS3 inh	MT1-MMP reporter	Hsc70
Nc1c(Nc2ccccc2)c2ccccc2oc1=O	-0.7	i	0.1%
CCCCc1c(C)c2ccc(OCC(C)=O)cc2oc1=O	0.59	i	1.7%
Cc1cc(NC(=O)COC(=O)C(Nc2ccc(C(F)(F)F)cc2Cl)C(C)C)no1 (stereo unspecified)	-0.27	i	7.0%
COC(=O)c1cncc(O)c1	.	i	3.5%
OCCN1CCN(CC(O)COc2ccc3c(c2)OCO3)CC1 (stereo unspecified)	-0.61	i	1.4%
N#CCSc1nnc(-c2ccccc2)c(-c2ccccc2)n1	0.05	i	-3.6%
COc1ccc(CCNC(=O)CSc2nnnn2-c2ccccc2OC)cc1OC	0.24	i	2.0%
COC(=O)c1[nH]c(C)c(/C(O)=C2\C(=O)C(=O)N(CCCN3CCOCC3)C2c2ccccn2)c1C (stereo unspecified)	0.51	i	2.0%
CCNc1nc(NC(C)C)nc(N(C#N)CCOc2ccccc2)n1	.	i	1.6%
Cc1ccc(CC(=O)N2CCN(c3ccccn3)CC2)cc1	.	i	3.2%
Cc1noc(C)c1COc1ccc(C(=O)OCc2nnc(-c3ccc(Cl)cc3)o2)cc1	-1.1	i	2.4%
COc1cccc(NC(=O)N(CCCN2CCOCC2)C(C)c2cc3cccc(OC)c3o2)c1 (stereo unspecified)	0.09	i	2.2%
CCOC(=O)c1cccc(NC(=O)CS(=O)(=O)Cc2nc(-c3cccc(OC)c3)oc2C)c1	-0.02	i	-0.6%
CCC(C)NC(=O)CSc1nnc(-c2ccncc2)n1-c1ccc(OC)cc1 (stereo unspecified)	-0.23	i	6.2%
O=C(Cc1ccc(-n2cccc2)cc1)N1CCc2ccccc21	0.27	i	-1.0%
CN(c1ccc(C(=O)NCCSC(C)(C)C)cc1)S(C)(=O)=O	-1.4	i	-0.9%
COc1ccc(CNC(=O)C2COc3ccccc3O2)cc1 (stereo unspecified)	-0.91	i	5.2%
COC(=O)CN(C)C1CC(=O)N(c2ccc(Cl)cc2)C1=O (stereo unspecified)	-0.29	i	-1.8%
CCn1c(COc2ccccc2C)nnc1SCC(=O)CC(=O)Nc1ccccc1OC	-0.67	i	-11%
CC(=O)N1CCN(CCN=CC2=C(O)CC(c3ccco3)CC2=O)CC1 (stereo unspecified)	0.94	i	2.2%
CCCCCc1c(C)nc(Nc2ccccc2)[nH]c1=O	-0.66	i	2.2%
O=C(CN1CCOc2ccccc21)N1CCC(Cc2ccccc2)CC1	-1	i	3.4%
Cc1ccc2nc(SCC(=O)c3ccc4c(c3)OCO4)[nH]c2c1	.	i	-1.2%
O=C(O)CC1Sc2nc3ccccc3n2C1=O (stereo unspecified)	0.66	i	0.3%
CCOC(=O)N1CCC(Nc2c(NCCCN(C)Cc3ccccc3)c(=O)c2=O)CC1	0.57	i	6.1%
CCOc1ccc(S(=O)(=O)Nc2ccc(C(=O)N/N=C(\C)c3ccc(-n4ccnc4)cc3)cc2)cc1	.	i	-2.2%
Cc1ccc(-c2nc3c(cnn3-c3ccccc3)c(=O)o2)cc1	.	i	-5.2%
Cc1c(NC(=O)CSc2ccccn2)c(=O)n(-c2ccccc2)n1C	-0.64	i	-1.1%
Cc1nnc(NC(=O)CSc2nccn2-c2cccc(C)c2C)s1	-0.33	+	1.3%
CCCCOc1ccccc1NC(=O)Cn1c(-c2nonc2N)nc2ccccc21	1.2	i	3.7%
Cc1ccc(NC(=O)C2CC(=O)NC(N3CCc4ccccc43)=N2)cc1 (stereo unspecified)	-0.08	i	-4.3%
CCOc1ccc(NC(=O)[C@@H](NC(=O)c2ccccc2)[C@@H](C)CC)cc1	.	i	1.7%
CN(C)S(=O)(=O)c1cccc(NC(=O)COC(=O)CCc2nc3ccccc3s2)c1	.	i	0.8%
COc1ccc(C2C(=O)N(CCc3ccccc3)CC(=O)N2C2CCCCC2)cc1 (stereo unspecified)	.	i	-0.4%
Cc1cc(C(=O)CSc2nnnn2C)c(C)n1-c1cccc(F)c1	-0.58	i	-8.8%
O=C(COc1ccc(CO)cc1)Nc1ccc(F)cc1	-0.12	i	3.2%
CC1CC(C)CN(c2ccc(C(=O)OCC(=O)NC3CCCc4ccccc43)cc2[N+](=O)[O-])C1 (stereo unspecified)	.	i	-5.0%
Cc1occc1C(=O)Nc1nnc(C2CCCCC2)s1	1.1	i	3.9%
CCn1c(N2CCN(C(=O)Nc3ccc(F)cc3)CC2)nc2ccccc21	.	i	0.2%
C=CCn1c(SCc2cccc(C#N)c2)nnc1-c1ccccc1O	0.0029	i	5.4%
CCN(c1ccccc1)S(=O)(=O)c1ccc(C(=O)Nc2nccs2)cc1	.	i	2.2%
Cc1ccc(-c2cc(C(=O)NCCCN3CCOCC3)no2)cc1	-1.6	i	4.1%
O=C(c1cn(-c2ccccc2)nc1-c1cccs1)N1CCOCC1	.	i	2.6%
Cc1ccc(-n2nnc3c(=O)n(Cc4cc(C)ccc4C)cnc32)cc1	0.57	i	-1.2%

Compounds above that contain an NH in an aromatic ring (13):
SMILES	WNV NS2B-NS3 inh	MT1-MMP reporter	Hsc70
Cc1nnc(SCC(=O)Nc2sc3c(c2C(N)=O)CCCC3)[nH]c1=O	.	i	-2.4%
CNC(=O)COC(=O)c1cc(=O)[nH]c2ccccc12	.	i	2.5%
CSc1ncc(Cl)c(C(=O)C(C#N)c2nc3c(C)cc(C)cc3c(=O)[nH]2)n1 (stereo unspecified)	-0.86	i	3.0%
COc1ccc(-n2c(=S)[nH]c3cc(C(=O)NCc4ccco4)ccc3c2=O)cc1OC	1.1	i	-2.0%
COc1cccc(OCc2nc3ncc(Br)cc3[nH]2)c1	-0.51	i	1.9%
CC(C)CC1C(C#N)=C(N)Oc2n[nH]c(-c3ccccc3)c21 (stereo unspecified)	.	i	-7.1%
COc1ccc(NC(=O)c2[nH]c(C)c(C(C)=O)c2C)cc1Cl	-0.35	i	6.1%
CC(Nc1n[nH]c(=S)[nH]c1=O)C(=O)OCc1ccccc1 (stereo unspecified)	-1.1	i	25%
COC(=O)c1ccc(CSc2ncn[nH]2)o1	1.5	i	10%
O=C1NC(Cc2c[nH]c3ccccc23)C(=O)N1c1ccc(F)cc1 (stereo unspecified)	.	i	-0.7%
COC(=O)c1[nH]c(C)c(/C(O)=C2\C(=O)C(=O)N(CCCN3CCOCC3)C2c2ccccn2)c1C (stereo unspecified)	0.51	i	2.0%
CCCCCc1c(C)nc(Nc2ccccc2)[nH]c1=O	-0.66	i	2.2%
Cc1ccc2nc(SCC(=O)c3ccc4c(c3)OCO4)[nH]c2c1	.	i	-1.2%
